# VDR inh: inhibitors of human vitamin D receptor; VDR-SRC2-3 peptide fluorescence polarization, 2 h; hit rate 0.93% among 400,000; Potency, µM, for the others: max response, negative = inhibition, most hits filed as inhibitors; P11473; AID 504847; active = well fitted inhibition curve with a large enough effect; also: series mostly up to about 120 µM
# Target sequence (P11473 whole entry, looked up): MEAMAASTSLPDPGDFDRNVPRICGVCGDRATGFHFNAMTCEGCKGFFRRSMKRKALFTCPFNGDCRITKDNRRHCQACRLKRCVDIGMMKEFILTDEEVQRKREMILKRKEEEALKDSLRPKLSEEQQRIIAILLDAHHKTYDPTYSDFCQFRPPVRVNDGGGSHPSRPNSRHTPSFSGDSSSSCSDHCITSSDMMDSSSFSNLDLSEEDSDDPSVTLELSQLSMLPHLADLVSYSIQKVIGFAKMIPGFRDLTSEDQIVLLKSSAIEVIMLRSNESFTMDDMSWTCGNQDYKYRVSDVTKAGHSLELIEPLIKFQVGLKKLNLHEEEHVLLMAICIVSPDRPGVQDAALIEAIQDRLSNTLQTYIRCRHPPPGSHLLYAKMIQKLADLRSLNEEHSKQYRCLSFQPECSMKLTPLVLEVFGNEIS
#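 Fluorescence polarization assay of small-molecule disruption of VDR binding to coregulator peptide SRC2-3. Compounds and controls pin-transferred, then read after 2 h incubation at ambient room temperature.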
# Numbers without * were called inactive; & = joins results of further samples. % is scaled to controls: 0 for no effect and ±100 for the full control effect; potency is read from the fitted curve at half-maximal effect. An excerpt, so the mix of outcomes need not match the whole.
VDR inh,SMILES
4.4%,COCCNC(=O)CN1C(=O)c2cccnc2Sc2ccccc21
12.5%,COc1ccc(Oc2nccc(-c3ccc(F)cc3)c2C#N)cc1
-16.1%,CC1CN(CCCCSc2ccc(Cl)cc2)CC(C)O1 (configuration not stated)
-15.0%,C[C@H]1NC(=O)[C@@]2(C)[C@H](c3ccccc3)[C@H]3COc4ccccc4[C@@H]3N2C1=O
19.9%,CN(Cc1ccccc1)C(=O)c1ccccc1C(=O)O
9.5%,Cc1c(NC(=O)COc2ccc3ccccc3c2)c(=O)n(-c2ccccc2)n1C
17.9%,CCCCOc1ccc2c(C)cc(=O)oc2c1OCCCC
18.5%,C#CC(C)(CC)NC(=O)c1cc2cccc(CC=C)c2oc1=O (configuration not stated)
8.6%,COc1cccc(C(=O)NCCc2csc3nc(-c4ccccc4F)nn23)c1OC
-15.2%,CC(=O)Nc1cc(-c2nc3ccccc3o2)ccc1Cl

VDR inh,SMILES
-26.2%,O=C1[C@H]2[C@@H](c3ccc(Cl)cc3)N3C(=O)N(c4cccc(F)c4)C(=O)[C@@]3(Cc3ccc(Cl)cc3)[C@H]2C(=O)N1C1CCCCC1
-7.4%,COc1ccc(F)cc1S(=O)(=O)N1CCCCC1
20.9%,CC1CCC2(CC1)NC(=O)N(CC(=O)Nc1nc(-c3ccc(F)cc3)cs1)C2=O (configuration not stated)
9.6%,O=[N+]([O-])c1ccc(N2CCOCC2)cc1NCc1ccccc1
5.9%,COc1ccc(CCN2CC(C(=O)O)CC2=O)cc1 (configuration not stated)
-4.0%,Cc1cc(C)cc(SCc2noc(C(=O)NCc3ccccc3)c2C(=O)NCc2ccccc2)c1
-3.2%,COc1ccccc1OCCCCn1c(C2CC(=O)N(c3ccccc3Cl)C2)nc2ccccc21 (configuration not stated)
4.3%,COc1cccc(-c2nc(SCC(=O)Nc3ccc4c(c3)OCCO4)c(-c3ccccc3)[nH]2)c1
-6.4%,CC1(C)CC(=O)c2sc(NC(=O)CN3CCOCC3)nc2C1
-13.9%,CCc1ccc(S(=O)(=O)Nc2ccc(-c3nc4cccnc4s3)cc2)s1

# As entered above.
# Under VDR inh, COc1ccc(CCN2CC(C(=O)O)CC2=O)cc1 (configuration not stated) is listed with 5.9%
# Under VDR inh, COc1ccccc1OCCCCn1c(C2CC(=O)N(c3ccccc3Cl)C2)nc2ccccc21 (configuration not stated) is listed with -3.2%

# The list goes on:
VDR inh,SMILES
-2.9%,CN1CCCN(C(=O)c2ccc(Cl)c(S(=O)(=O)N(C)c3ccccc3)c2)CC1
4.3%,COC(=O)c1sc2cccc(F)c2c1S(=O)(=O)Nc1cc(OC)cc(OC)c1
-22.3%,Cc1c(C(=O)N2CCN(c3ccccc3)CC2)oc2c1C(=O)CC(C)(C)C2
2.8%,CCOC(=O)N1CCN(C(=O)CCn2c(=O)[nH]c3ccsc3c2=O)CC1
11.2%,CN(C)CCCNC(=O)/C(=N\O)c1ccccc1
-9.0%,CCOc1ccc(-c2ccc(SCc3ccccn3)nn2)cc1
-6.8%,CCCc1cc(=O)n2[nH]c(-c3ccc(OC)cc3)nc2n1
-13.9%,O=C(c1ccco1)N1CCN(c2nc3ccsc3c(=O)s2)CC1
5.5%,Cc1cccc(C(=O)Nc2ccc(S(=O)(=O)N(Cc3ccccc3)c3ccccc3)cc2)c1
-6.4%,O=C(/C=C/c1ccc(Cl)cc1Cl)Nc1ccc(CN2CCOCC2)cc1

VDR inh,SMILES
-4.4%,CCc1noc(C)c1C(=O)OCC(=O)Nc1ncc(Cl)cc1Cl
5.4%&-0.1%,CC(=O)c1ccc(N2CCN(C(=O)Nc3ccc(C)cc3)CC2)cc1
-12.9%,CCOC(=O)C(C(=O)OCC)C(c1ccccc1)N1CCN(c2ccccc2)CC1 (configuration not stated)
-13.5%,COc1cc(C(=O)N2CCN(C(=O)C3CC3)CC2)cc(OC)c1OC
-2.0%,CCOc1c(CNCCN2CCOCC2)cccc1OC
5.4%,CC1SC2(NC1=O)C1CC3CC(C1)CC2C3 (configuration not stated)
1.4%,Cc1cccc(NC(=O)C2CCCN(S(=O)(=O)c3cccc4nsnc34)C2)c1 (configuration not stated)
7.0%&3.4%,COc1ccc(C(CC(=O)N2CCCCC2)c2c(OC)cc(OC)c3ccc(=O)oc23)cc1 (configuration not stated)
23.1%,Cn1c(=O)[nH]c(=O)c2c1nc(NCc1ccco1)n2CCCc1ccccc1
-0.1%,Cc1cc(Cl)ccc1NC(=O)C1CCN(S(C)(=O)=O)CC1

VDR inh,SMILES
-15.9%,COc1ccc(-n2nc(-c3ccc(C)cc3)c3cnc4cc(F)c(F)cc4c32)cc1
-2.3%,CCCOC(=O)c1ccc(NC(=O)CCC(=O)OCC)cc1
-5.2%,COc1ccc(C2C(C(=O)OC(C)C)=C(C)N=c3s/c(=C\c4cccs4)c(=O)n32)cc1 (configuration not stated)
1.1%,O=C(Cc1cccs1)N1CCN(S(=O)(=O)c2cc(Cl)ccc2Cl)CC1
-28.2%,O=C1[C@@H]2[C@H](C(=O)N1n1cnnc1)[C@H]1C=C[C@@H]2C1
15.1%,Cc1cc(C)nc(NS(=O)(=O)c2ccc(NC(=S)NC(=O)C(C)(C)C)cc2)n1
-11.8%,Cc1cccc(NC(=O)c2nc[nH]c2C(=O)Nc2cccc(C)c2)c1
-11.6%,CCN1C(=O)[C@@H]2[C@@H](c3ccc(-c4ccc(Cl)c(Cl)c4)c(OC)c3)N3CCCC[C@@]3(C(=O)OC)[C@@H]2C1=O
-24.9%,COCCNC(=S)N1CCN(c2nc(-c3ccc(F)cc3)cs2)CC1
5.7%,Cc1cc(C)cc(N(CCC#N)C(=O)CSc2nc3ccccc3c(=O)[nH]2)c1

VDR inh,SMILES
-12.4%,O=C(Nc1ccc(Cl)c(C(F)(F)F)c1)c1ccncc1
-20.1%,O=C1C(=O)N(c2ccccn2)C(c2cccc([N+](=O)[O-])c2)/C1=C(/O)c1ccc(Br)cc1 (configuration not stated)
4.3%,Cc1nn(-c2ccccc2)c(N)c1C1(O)C(=O)N(C(C)C)c2ccccc21 (configuration not stated)
-6.1%,CN(C)C(CNC(=O)CCNS(=O)(=O)c1ccccc1C(F)(F)F)c1ccccc1 (configuration not stated)
-14.0%&1.2%,Cc1c(N(C)CS(=O)(=O)O)c(=O)n(-c2ccccc2)n1C
-25.9%&-8.8%,COc1ccc(C2CC(c3ccccc3)Oc3ccc(OC)cc32)cc1 (configuration not stated)
-6.1%,Cc1ccc(Cn2c(C3CCCN3c3nc(-c4ccc(F)cc4)cs3)nc3cc(Cl)c(Cl)cc32)cc1 (configuration not stated)
-4.2%,Cc1ccc(S(=O)(=O)CC(=O)Nc2nc3c(C)cccc3s2)cc1
-16.6%,O=S(=O)(c1ccccc1)N1CCN=C1SCc1cccc(Cl)c1
26.4%,O=C(CNC(c1ccccc1)c1ccccc1)Nc1ccccc1F

VDR inh,SMILES
-2.7%,CC(=O)Nc1ccc(NC(=O)CN(C)S(=O)(=O)c2ccc3nc(C)sc3c2)cc1
0.0%,CCN(CC)C(=O)CSc1nnc(-c2ccc(F)cc2)n1N
1.2%,CCOC(=O)C1CCN(Cc2ccc(F)cc2F)CC1
-11.9%,Cc1nc2ccccc2n1/N=C/c1cccnc1
8.2%,CC(C)N1CCc2c(sc(NC(=O)c3ccc(S(=O)(=O)N(C)CC4CCCO4)cc3)c2C(N)=O)C1 (configuration not stated)
-10.8%,CC(=O)Nc1ccc(OCC(=O)N2CCC(Cc3ccccc3)CC2)cc1
-6.4%,CCOC(=O)c1cnc2c(C(=O)OC)cccc2c1NCc1cccnc1
4.4%,CN(C)c1ccc(/C=N/NC(=O)CNC(=O)c2ccncc2)cc1
-3.6%,CN(Cc1ccccc1)S(=O)(=O)c1ccc(Cl)c(C(=O)NCCCN2CCCC2=O)c1
-16.7%,O=C1CCCc2c1nc(-c1ccc(F)cc1)n2O

VDR inh,SMILES
7.9%,O=C(c1ccccc1)N1CCN(C(=O)c2ccccc2)C1c1ccccc1
1.9%,Cc1c(C(=O)c2ccc(N(C)C)cc2)c2ccccn2c1CCC#N
12.1%,COc1ccc(N2C(=O)CN=C2Nc2cccc(C)c2C)cc1OC
13.2%,CCOc1cc(-c2nc(-c3ccc(-c4ccc(C)cc4)nc3OC)no2)cc(OCC)c1OCC
4.8%,Cc1cccc(C)c1-n1c(C)cc(/C=N/NC(=O)c2ccncc2)c1C
12.9%,Cc1ccc(C(=O)Oc2ccccc2C(=O)N2CCOCC2)cc1
1.6%,O=C1CCCC1C(O)c1ccc2ccccc2c1 (configuration not stated)
0.9%,C/C(=C1/SC(N2CCCC2)=NC1=O)c1ccc(Br)cc1
-13.8%,O=C(/C=C\c1ccc(-c2ccccc2)o1)c1ccccc1
-8.0%,COc1cc(C(C[N+](=O)[O-])c2c(C)[nH]c3ccccc23)cc(OC)c1OC (configuration not stated)

# Entries from the list above with a CF3 group, in the order listed:
VDR inh,SMILES
-12.4%,O=C(Nc1ccc(Cl)c(C(F)(F)F)c1)c1ccncc1
-6.1%,CN(C)C(CNC(=O)CCNS(=O)(=O)c1ccccc1C(F)(F)F)c1ccccc1 (configuration not stated)

# The list continues.
VDR inh,SMILES
-2.5%,COc1cc(/C=C\C(=O)O)cc(S(=O)(=O)N2CCCCCC2)c1OC
15.6%,CCOC(=O)CC(=O)Nc1ccsc1C(N)=O
8.2%,O=C(c1cccs1)N1CCN(c2nnc(-c3ccccc3)c3ccccc23)CC1
13.2%,O=C(NCCNC(=O)c1cccnc1)c1ccc(Br)cc1
-8.6%,N#CCSc1n[nH]c2nc3c(c(=O)n12)C1(CCCC1)Cc1ccccc1-3
3.1%,C/C(=N\NC(N)=O)c1cc(Cl)cc(Cl)c1O
-4.1%,CSCCC(=O)N1CCC(n2nccc2NC(=O)CCc2ccccc2)CC1
6.5%,COc1ccc(C2=NOC(Cn3nc(-c4ccccc4C)cc3C(=O)O)C2)cc1 (configuration not stated)
11.6%,CCOc1ccccc1Nc1nnc(SCC(=O)NC2CCS(=O)(=O)C2)s1 (configuration not stated)
-2.3%,Nc1c(-c2ccc(Cl)cc2)cnc2c(-c3ccccc3)cnn12

VDR inh,SMILES
-4.2%,Cc1csc(=O)n1CCC(=O)O
2.1%,CN(C)c1ccc(C2CC(c3c(O)n(C4CCCCC4)c(=O)[nH]c3=O)=Nc3ccccc3S2)cc1 (configuration not stated)
16.2%,O=C(Cn1c(NCCO)nc2ccccc21)Nc1ccc2c(c1)OCCCO2
5.4%,Cc1cc(NC(=O)COC(=O)c2nccnc2N)n(-c2ccccc2)n1
-7.5%,COC(=O)Cc1cc(=O)[nH]c(/N=C(\N)Nc2ccc(C(C)C)cc2)n1
2.8%,CCCSc1nc2c([nH]1)c(=O)n(C)c(=S)n2C
-22.0%,O=c1c(Cl)c(NCC2CCCO2)cnn1C12CC3CC(CC(C3)C1)C2 (configuration not stated)
-9.1%,Cc1nonc1NC(=O)CSc1nc2ccc(Cl)cc2[nH]1
6.5%,CCc1nnc(NC(=O)c2ccc3c(c2)C(=O)N(CC)C3=O)s1
4.3%,COc1ccc(Cl)cc1NC(=O)Cn1cnc2sc(C)c(S(=O)(=O)N3CCN(c4ccccc4OC)CC3)c2c1=O

VDR inh,SMILES
2.8%,O=C(Nc1ccccn1)C(=O)N1CCCCC1
-4.2%,COc1ccc(Cn2nnnc2C(c2cc3cc(C)ccc3[nH]c2=O)N2CCOCC2)cc1 (configuration not stated)
3.7%,Cc1nc2ccccc2n1CCc1nc2c3ccccc3nc(SCc3cccc(F)c3)n2n1
10.0%,CCN(CC)C(=O)[C@H]1C[C@H](CC(=O)NCCC2=CCCCC2)C(=O)N2CCc3c([nH]c4cc(CCC(=O)N(C)C)ccc34)[C@]12C
10.8%,Cn1nnnc1SCCNC(=O)C1CCC(=O)N(CCc2ccccc2)C1 (configuration not stated)
1.6%,CC(CCc1ccccc1)NC(=O)Cn1ncc2c3ccccc3n(Cc3ccccc3)c2c1=O (configuration not stated)
0.0%,NC(=O)c1ccccc1Nc1nc2nc3ccccc3c(=O)n2cc1Br
-2.6%,Cn1c(Cn2c(=O)sc3ccccc32)nnc1SCc1cccc(F)c1
-8.1%,O=C1C(C=NCCN2CCOCC2)=C(O)c2ccccc21
7.1%,CCc1nc(Oc2cccc(F)c2)c2oc3ccccc3c2n1

VDR inh,SMILES
0.8%,COc1ccc(C2C3=C(CC(C)(C)CC3=O)Oc3ncn(CC(C)C)c(=N)c32)cc1 (configuration not stated)
-2.3%,Cc1nc2ncccn2c1-c1csc(Nc2ccc(O)cc2)n1
-9.9%,CC(=O)c1ccc(OCCCCCCCOc2ccc(C(C)=O)cc2)cc1
-3.3%,O=C(COC(=O)c1cccc(OC(F)F)c1)NC1CCCC1
-2.8%,C/C(Cn1nnc([N+](=O)[O-])n1)=N\NC(=O)c1ccc(O)cc1O
1.0%,COc1ccc(S(=O)(=O)N(C)CC(=O)Nc2c(F)cccc2F)cc1
-4.2%,CCCNC(=O)C(CC)n1nc(CC)n2c(cc3oc(C)cc32)c1=O (configuration not stated)
5.1%,CCn1cc(C(=O)O)c(=O)c2cnc(N3CCN(C(=S)Nc4ccccc4C(F)(F)F)CC3)nc21
-5.0%,C[C@@H]1CN([C@@H](C)CO)C(=O)c2cccc(NS(=O)(=O)c3ccc(F)cc3)c2O[C@H]1CN(C)C(=O)NC1CCCCC1
-5.0%,O=C(NC1=NCCS1)Nc1ccccc1
-15.3%,COc1ccc(/C=C/C(=O)N2CCOCC2)cc1OC
-12.8%,O=C(Nc1ccncc1)Nc1ccccc1Cl
-1.5%,CCOC(=O)C1CCN(C(=O)CCc2c(C)nc3cc(-c4ccccc4)nn3c2C)CC1

# Reformatted bar-delimited: part of the list above.
molecule | VDR inh
O=C(NC1=NCCS1)Nc1ccccc1 | -5.0%
COc1ccc(/C=C/C(=O)N2CCOCC2)cc1OC | -15.3%
O=C(Nc1ccncc1)Nc1ccccc1Cl | -12.8%

# Source: PubChem BioAssay (National Center for Advancing Translational Sciences (NCATS))
